Bioassay records (PubChem BioAssay)
VACV mCherry inh = vaccinia inhibition (mCherry reporter) | Potency, µM (titrated, usually from 36.5 µM), without a hit: at the top dose activity change, negative = inhibition, most hits filed as inhibitors | AID 720579 | Vaccinia virus mCherry reporter infection, fluorescence; about a quarter of the inactives have no number | 310,000 compounds, 0.63% hits; active = well fitted inhibition curve with a large enough effect; inconclusive = small, poorly fitted or top-dose-only effect; inactive = no such curve, though single readings can be large or run the other way; tested in A549 cells; further: nearly all actives have a fitted effect of over 35% in size; inactives centre near -10
VACV Venus inh = vaccinia inhibition (Venus reporter) | Potency, µM (titrated, usually from 36.5 µM), for the others: top-dose activity change, negative = inhibition, most hits filed as inhibitors | 330,000 compounds, 0.46% hits | Vaccinia virus Venus reporter expression, fluorescence; active means well fitted inhibition curve with a large enough effect; inconclusive means small, poorly fitted or top-dose-only effect; inactive means no such curve, though single readings can be large or run the other way; tested in A549 cells; further: nearly all actives have a fitted effect of over 30% in size; inactives centre near -10
The depositor's hits bear a star; i = inactive; u = inconclusive; x = not tested or not shown; & = joins results of further samples; [ ] = dose if it differs, or a comment. On the % scale 0 is the no-effect control and ±100 the full control effect; potency means the concentration at half of the fitted maximal effect.

Molecule | VACV mCherry inh | VACV Venus inh
Cc1ccccc1OC(C)C(=O)Nc1ccc(S(=O)(=O)N2CCCC2)cc1 (centres undefined) | -3% | -11%
COc1ccc(OC(=O)c2cn(C)nc2C(F)(F)F)cc1 | x | 7%
CCOc1ccc(CCNC(=O)c2cccc(-n3cnnn3)c2)cc1OCC | -22% | -9%
O=C(O)CC12C[C@H]3C[C@@H](C1)CC(n1ncc(N4CCN(c5ccccc5)CC4)c(Cl)c1=O)(C3)C2 | -6% | -14%
Cc1nn(C)cc1S(=O)(=O)Nc1ccc(F)c(F)c1 | -17% | -14%
CCC(CCC(=O)Nc1ccn(-c2ccccc2)n1)C(=O)O (centres undefined) | i | -9%
N#Cc1ccccc1S(=O)(=O)N1CCN(C(=O)CN(Cc2ccco2)Cc2cccs2)CC1 | u | -16%
NS(=O)(=O)c1ccc(CCNC(=O)COC(=O)/C=C/c2cc(Br)ccc2F)cc1 | -16% | u
Cn1c2ccc(F)cc2c2nc3ccccc3nc21 | 13% | 0%
COc1ccc(NC(=O)c2cc3nc(-c4ccc(C)c(C)c4)cc(C(F)(F)F)n3n2)cc1 | -16% | -18%
O=C(COc1ccc(S(=O)(=O)N2CCOCC2)cc1)Nc1ccccc1Cl | 1% | 5%
CC(C)C[C@@H]1Cc2[nH]c(=S)[nH]c(=O)c2[C@H](C)O1 | 27% | 12%
CCOc1cc(NC(=O)C2CC2)c(OCC)cc1NC(=O)c1cc(OC)c(OC)c(OC)c1 | -4% | 2%
Cc1cc(C(=O)NCCC2=CCCCC2)no1 | -8% | -6%
COC(=O)C1=C(C)NC(C)=C(C(=O)OC)C1C(=O)OC(C)C(=O)c1ccccc1 (centres undefined) | i | -17%
CC1(c2nnnn2-c2ccc3c(c2)OCCO3)CCC(=O)N1CCc1ccccc1F (centres undefined) | -6% | -1%
Cc1ccc(-c2cn3c(n2)sc2cc(C(=O)NCc4cccs4)ccc23)cc1 | -17% | -8%
CCCCn1c(C)csc1=Nc1cccnc1 | i | -14%
O=C(Nc1cc(S(=O)(=O)N2CCCCC2)ccc1N1CCOCC1)c1ccc(C(F)(F)F)cc1 | -11% | -22%
Cc1ccc(C2C(C#N)=C(N)Oc3n[nH]c(-c4cccs4)c32)cc1 (centres undefined) | -24% | -11%
CC(=O)Oc1ccc(C(=O)[C@H]2[C@H]3C(=O)N(c4ccc5ccccc5c4)C(=O)[C@H]3[C@@H]3C=CC=NN32)cc1 | -14% | -3%
CN(C)CCNc1nc(-c2ccccc2F)c2sccc2n1 | 2% | -12%
Cc1cc(NC(=O)N(C)CCc2c(C)nn(C)c2C)ccc1Br | -11% | 2%
COc1ccc(NC(=O)NC2COc3ccccc3C2)c(OC)c1 (centres undefined) | -8% | -15%
Cc1cc(C)nc(SCc2nnc(SCC(=O)N3CCCc4ccccc43)n2C)n1 | -5% | 0%
CSc1ccc(CN(C)CC(=O)NCCc2ccccc2)cc1 | 10% | -5%
O=C(Nc1ccccc1C(=O)OCC(=O)c1c[nH]c2ccccc12)c1ccco1 | -13% | -18%
CS(=O)(=O)Cc1nc2ccccc2oc1=O | x | -13%
CC1(C)CC(N2CCN(c3ccccc3)CC2)=CC(=[N+]2CCCC2)C1 | u | u
Cc1ccc(N2CCCC2=O)cc1S(=O)(=O)N1CCOCC1 | i | -19%

Two neighbouring compounds already listed, quoted:
Molecule | VACV mCherry inh | VACV Venus inh
CC1(C)CC(N2CCN(c3ccccc3)CC2)=CC(=[N+]2CCCC2)C1 | u | u
Cc1ccc(N2CCCC2=O)cc1S(=O)(=O)N1CCOCC1 | i | -19%

Remaining list, next part:
Molecule | VACV mCherry inh | VACV Venus inh
COc1cccc(CN2CCN(C(=O)c3ccc(-c4ccccc4)cc3)CC2)c1 | -20% | -2%
CC(=O)[C@@H]1[C@@H](C(=O)c2ccc(C)cc2)[C@]2(C(=O)Nc3ccccc32)[C@H]2C=Cc3cc(F)ccc3N12 | -15% | 6%
O=C(O)C12CC3CC(C1)CC(n1cnc(Cl)n1)(C3)C2 | x | -5%
Cc1oc(CN2CCOCC2)cc1C(=O)O | i | -3%
COC(=O)N/N=C/c1c(C)cc(C)cc1C | -23% | -16%
O=C(/C=C/c1ccccc1)NC1CCS(=O)(=O)C1 (centres undefined) | i | -7%
O=C(O)c1nnn(-c2ccc(F)cc2F)c1-c1ccccc1 | -15% | -4%
Cc1cccc(C(=O)N2CCc3cc(CNS(=O)(=O)c4ccc(F)c(Cl)c4)ccc32)c1 | -16% | -15%
O=C(Nc1ccc(-c2ccc3nncn3n2)cc1)C1CCCCC1 | -10% | 17%
OC(COc1ccc2c(c1)OCO2)CN1CCc2ccccc2C1 (centres undefined) | -15% | -7%
COc1cc(/C=C(/C#N)c2nc3ccccc3c(=O)[nH]2)ccc1O | 0% | 16%
COc1ccccc1CNc1ccc(-c2nc(-c3cccc(C)c3)no2)cc1[N+](=O)[O-] | -11% | -14%
N#Cc1cccnc1N1CCN(C(=O)c2cccc3c2C(=O)c2ccc(-c4ccc(Cl)c(C(F)(F)F)c4)cc2S3(=O)=O)CC1 | -6% | -7%
O=C(CSc1ccc2ccccc2n1)Nc1nsc(-c2ccc(Cl)cc2)n1 | -11%&-10% | -4%&-10%
CCOC(=O)c1sc(=S)n(CC)c1N | -25% | -16%
COc1ccc(S(=O)(=O)N2CCC[C@H]2C(=O)N2CCC[C@H]2C(=O)N[C@@H](C)c2ccccc2)cc1C | -2% | 0%
CCOc1ccc(NC(=O)C(CC)n2nc(-c3ccc(C)c(C)c3)ccc2=O)cc1 (centres undefined) | -20% | -19%
Cc1ccc(CN2CCS(=O)(=O)CC2)cc1 | x | -3%
NC(=O)c1cc(N)ccc1N1CCCCC1 | -2% | -4%
Cc1cccc(CSc2nc3c(c(=O)n2C)SCC3)c1 | -15% | -11%
CC(C)(Oc1ccc(Cl)cc1)C(=O)OCC(=O)N1CCCC1 | x | 0%
COc1cc(OC)c(OC)cc1/C=C/c1ccc2ccccc2n1 | u | -21%
O=C(CSc1nc2ccccc2[nH]1)NCC1CCCO1 (centres undefined) | i | -19%
CN(Cc1ccccc1)C(=O)c1ccccc1NC(=O)c1ccco1 | -7% | -2%
O=C(O)CSCC(=O)N1CCN(S(=O)(=O)c2ccccc2)CC1 | 12% | 6%
COc1cc(CNCCc2ccc(F)cc2)ccc1OCc1ccc(Cl)nc1 | -20%[1.46 µM] | -20%
COCCn1c(C)cc(C(=O)COC(=O)c2cccnc2SC)c1C | -1% | -13%
Cc1ccc(-c2nc(CS(=O)CC(=O)O)c(C)o2)cc1 (centres undefined) | i | -22%
O=S(=O)(c1ccc(F)cc1)N1CCN(C(=S)NCc2ccco2)CC1 | -23% | -25%
COc1ccc(/C=N/NC(=O)c2cc[n+]([O-])cc2)cc1 | -5% | 0%

Quoted from the listing.
Entry for `CCOc1ccc(NC(=O)C(CC)n2nc(-c3ccc(C)c(C)c3)ccc2=O)cc1` (centres undefined) in VACV mCherry inh: -20%
Entry for `Cc1cccc(C(=O)N2CCc3cc(CNS(=O)(=O)c4ccc(F)c(Cl)c4)ccc32)c1` in VACV Venus inh: -15%

Further records:
Molecule | VACV mCherry inh | VACV Venus inh
CCC(Sc1nnc2c3ccccc3n(CC)c2n1)C(=O)Nc1nnc(C(C)C)s1 (centres undefined) | 10% | -2%
COc1ccc(/C=C/C(=O)c2cc(Br)ccc(=O)c2O)cc1 | -12% | -7%
COc1ccccc1NC(=O)Cc1nnc(SCC(=O)c2ccccc2)n1C | 6% | 1%
COc1ccc(C(=O)Nc2ccc3oc(-c4ccc5ccccc5c4)nc3c2)cc1Br | u | u
CN1/C(=C\C(=O)COC(=O)C2COc3ccccc3O2)C(C)(C)c2ccccc21 (centres undefined) | -8% | 5%
O=C(c1ccccc1CCc1ccccc1)N1CCOCC1 | -12% | -7%
O[C@H]1C[C@H](c2ccccc2)N(CC2CCCCC2)C[C@@H]1n1cc(-c2ccc(F)cc2)nn1 | u | u
N#C/C(=C\c1c(N2CCCCC2)nc2ccccn2c1=O)S(=O)(=O)c1ccccc1 | -21% | -17%
Cc1ccc(NC(=O)CSc2nc(-c3ccco3)nc3cc(=O)[nH]n23)c(Cl)c1 | -4%[7.34 µM] | 0%[7.34 µM]
Cc1cccc(NC(=O)CCNS(=O)(=O)c2cccc3nsnc23)c1 | -18% | -3%
CCc1ccc(OCC(=O)NNC(=O)C2CCC2)cc1 | -12% | -8%
Cc1ccoc1C(=O)N1CCCC(CCC(=O)N2CCN(c3ccccn3)CC2)C1 (centres undefined) | -8% | -8%
CN(C(=O)c1cc2c(s1)-c1ccc(Cl)cc1SC2)c1cccc(C(F)(F)F)c1 | 45%[activator] | 11%
COc1cc(OC)c(C(=O)NCCCN2CCOCC2)cc1OC | -13% | 1%
O=C(Cn1nnc(-c2cccs2)n1)NNC(=O)c1ccccc1Cl | i | 14%
O=C(NC(=S)NCc1cccnc1)c1ccc([N+](=O)[O-])cc1 | i | -11%
CSc1ccc(/C=C/C(=O)OCC(=O)NC(C)C)cc1 | i | -3%
Cc1ccc(C)n1-c1nnc(N2CCCC(C(=O)NCc3ccc(Cl)cc3)C2)s1 (centres undefined) | -1% | -22%
COc1ccc(NC(=O)C/C(C)=N/NC(=O)c2cnccn2)cc1Cl | i[7.34 µM] | 0%[7.34 µM]
CC(C)NCCOCCOc1ccc(Cl)cc1Br | -5% | -22%
Cc1cc(C)c(NC(=O)CCCOC(=O)C2=COCCO2)c(C)c1 | x | -16%
O=C(CCN1C(=O)C2C3C=CC(C4CC34)C2C1=O)Nc1ccc(Cl)cc1O (centres undefined) | -17% | -27%
C[C@H](CO)N1C[C@H](C)[C@@H](CN(C)CC2CCCCC2)Oc2c(NS(=O)(=O)c3cn(C)cn3)cccc2C1=O | i | -8%
Cc1ccc(-c2nc(CS(=O)(=O)CC(=O)NC3CCCCC3C)c(C)o2)cc1 (centres undefined) | u | u
Nc1c(Cl)cc(-c2csc(N3CCCC3c3nc4cc(Cl)c(N5CCCCC5)cc4n3CCOCCO)n2)cc1Cl (centres undefined) | -20% | -22%
Cc1ccc([N+](=O)[O-])c(C)[n+]1C | -2% | -17%
O=C(NC1CCCc2c1cnn2-c1ccc(F)cc1F)c1ccccc1N1CCOCC1 (centres undefined) | -5% | -15%
CSCC[C@H](NC(=O)C1=NN(c2c(F)c(F)cc(F)c2F)C(=O)CC1)c1nc2ccccc2[nH]1 | -13% | -10%
CCN(C(=O)COC(=O)C1CCN(S(=O)(=O)c2ccc3c(c2)OCCO3)CC1)C1CCS(=O)(=O)C1 (centres undefined) | -14% | -9%
CCC(C)c1ccccc1N1CC(C(=O)N2CCN(c3ccccc3)CC2)CC1=O (centres undefined) | u | -23%
O=[N+]([O-])c1ccc(OCCCn2cncn2)cc1 | i | -11%
COc1ccccc1NCC(=O)NC(=O)NC1CCCCC1 | u | -9%
Cc1nn(C)cc1/C=N\NC(=O)c1ccc(Cn2cc(Cl)cn2)cc1 | -11% | -5%
Cc1ccc(Cl)cc1NC(=O)C1CC1c1ccccc1 (centres undefined) | -9% | -10%
Cc1ccc(-c2nnc(Nc3ccc(C(=O)N(C)C)cc3)c3ccccc23)cc1S(=O)(=O)N(C)C | -15% | -5%
C=CCn1c(=O)c(C(=O)NCCN(CC)CC)c(O)c2ccccc21 | x | 7%
CNC(=O)/C(C#N)=C/c1c(N2CCN(c3cccc(Cl)c3)CC2)nc2c(C)cccn2c1=O | -12% | -9%
COc1ccc(NS(=O)(=O)c2cccc(C(=O)NCC(c3ccccc3)N(C)C)c2)cc1 (centres undefined) | i | -12%
CC(=O)OCCCCON1C(=O)c2ccccc2C1=O | x | -1%
CCOC(=O)N1CCC(N(CCOC)C(=S)Nc2cccc(SC)c2)CC1 | i | -26%
CCN1CCN(C(=O)CSc2cc(=O)n(CC)c3ccccc23)CC1 | -12% | -7%
CCC(=O)N1CCCC1(C)C(=O)Nc1cc(OC)ccc1OC (centres undefined) | 31%[activator] | -9%
CN(CC(=O)NCC1CCCCC1)S(=O)(=O)c1ccc(Cl)cc1 | -8% | -10%
CC1=C(C(=O)Nc2cccc(C(=O)NC(C)C)c2)SCCO1 | i | -11%
CCOC(=O)c1ccc(NC(=O)CCc2c(C)n(CC)c3cc(-c4ccccc4OC)nn3c2=O)cc1 | -3% | 0%
Cc1nnc(SCCC(=O)Nc2ccccc2Cl)o1 | u | -26%
O=C(O)C1CCCNC1 (centres undefined) | i | -13%&0%

Part of the list above in order of SMILES length, lowest first.
Molecule | VACV mCherry inh | VACV Venus inh
Cc1nnc(SCCC(=O)Nc2ccccc2Cl)o1 | u | -26%
O=[N+]([O-])c1ccc(OCCCn2cncn2)cc1 | i | -11%
CCC(=O)N1CCCC1(C)C(=O)Nc1cc(OC)ccc1OC (centres undefined) | 31%[activator] | -9%
C=CCn1c(=O)c(C(=O)NCCN(CC)CC)c(O)c2ccccc21 | x | 7%
CCOC(=O)N1CCC(N(CCOC)C(=S)Nc2cccc(SC)c2)CC1 | i | -26%
COc1ccc(NS(=O)(=O)c2cccc(C(=O)NCC(c3ccccc3)N(C)C)c2)cc1 (centres undefined) | i | -12%
